Assay outcomes (PubChem)
AID923: qHTS Assay for Allosteric/Competitive Inhibitors of Caspase-1: Spectroscopic Profiling in AFC Spectral Region. 75,000 compounds, 1.1% hits. compound fluorescence, AFC spectral region (405/520 nm); almost no hit is shown here. Potency, µM (series often up to 57.5 µM), for inactives: top-dose fluorescence increase, hits mostly activators; active = well fitted activation curve with a large enough effect;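 note: 0% is about no effect; scaled to a free AFC standard on each plate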
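Titrations up to 57 uM read every 20 sec for 3 min (405/520 nm) with 50 nM caspase 1 and 5 uM Ac-WEHD-AFC, pH 7.5 HEPES buffer. Fluorescence-vs-time intercept gave baseline, scaled against on-plate AFC standard.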
* hit, by the source's call; & = joins results of further samples. Potency is the fitted concentration of half-maximal effect. These rows are one share of the data, so the mix of outcomes need not match the whole.

no. | Compound | AID923
1 | COC(=O)c1c(C)cc(OC)cc1O | -1.5%
2 | N#C/C(=C1/CCCCCN1)c1nnc2n1CCCCC2 | -0.8%
3 | COC(=O)C1=C(C)NC(C)=C(C(=O)OCCN(C)Cc2ccccc2)C1c1cccc([N+](=O)[O-])c1 (centres undefined) | 0.5%
4 | O=C(O)C(O)[C@@](O)(Cc1ccc(O)cc1)C(=O)O (some centres undefined) | -1.2%
5 | CC(=O)C1CCC2C3CC=C4CC(O)CC[C@@]4(C)C3CC[C@]12C (some centres undefined) | -1.0%
6 | CN1C(=O)C(O)(CC(=O)c2ccc3c(c2)OCO3)c2ccccc21 (centres undefined) | 0.4%
7 | NC(=O)NCc1ccccc1 | -1.9%
8 | Cc1ccc2oc(-c3ccccc3)cc(=O)c2c1 | -1.6%
9 | O=C(CCc1ccc(O)cc1)c1c(O)cc(O)cc1O[C@@H]1O[C@H](CO)[C@@H](O)[C@H](O)[C@H]1O | -0.5%
10 | CC1(C)SC2C(NC(=O)C(N)c3ccccc3)C(=O)N2C1C(=O)O (centres undefined) | 1.2%
11 | c1ccc(C2[C@H]3CN(CC4CCCCC4)[C@H](c4ccccc4)C34CC2(c2ccccc2)C4)cc1 (some centres undefined) | -2.3%
12 | O=C1c2ccccc2C(=O)c2c1ccc(O)c2O | -2.0%&-1.7%
13 | CCCC(=O)O[C@]1(C(=O)CO)CCC2[C@@H]3CCC4=CC(=O)CC[C@]4(C)C3C(O)C[C@]21C (some centres undefined) | -1.6%
14 | O=C(NCc1ccco1)N1c2ccccc2Sc2ccccc21 | 0.6%
15 | COC(=O)[C@@H]1C[C@@]2(O)[C@H](O)[C@H](O)[C@H](O)C[C@H]2N1Cc1c(F)cccc1Cl | 1.5%
16 | OCC(O)C(O)[C@H](O[C@H]1OC(CO)C(O)C(O)C1O)[C@H](O)CO (some centres undefined) | -2.3%
17 | O=C(O)c1cc(C(F)(F)F)nc2c(C(F)(F)F)cccc12 | -2.5%
18 | COC1[C@H](OC(N)=O)C(O)[C@H](Oc2ccc3c(O)c(NC(=O)c4ccc(O)c(CC=C(C)C)c4)c(=O)oc3c2C)OC1(C)C (some centres undefined) | 0.2%
19 | Cc1ccc(CNC(=O)c2cc3c(-c4ccc(Cl)cc4)nn(C)c3s2)o1 | 1.7%
20 | CC[C@@H]1OC(=O)[C@@H](C)[C@H](O[C@H]2C[C@@](C)(OC)[C@@H](O)[C@H](C)O2)C(C)[C@H](O[C@H]2O[C@@H](C)C[C@@H](N(C)C)[C@@H]2O)[C@@](C)(O)C[C@H](C)C(=O)[C@@H](C)[C@H](O)[C@@]1(C)O (some centres undefined) | -1.7%
21 | COc1ccccc1CC(Cc1nc2ccccc2[nH]1)c1nc2ccccc2[nH]1 (centres undefined) | 0.1%
22 | CC(=O)OC1CC(OC(C)=O)[C@]2(C)C(CC(=O)[C@]3(C)C2CC[C@@]2(C)C(C(=O)O)OC(=O)C4OC423)C1(C)C (some centres undefined) | 0.2%
23 | O=C(c1ccc(-c2ccccc2)cc1)N1CCN(C(=O)c2ccco2)CC1 | 4.1%
24 | OCC1O[C@H](Oc2ccc(O)cc2)C(O)C(O)C1O (some centres undefined) | 2.5%
25 | COC(=O)c1cccc(C23CC4(C2)[C@H](CN(Cc2cccnc2)[C@@H]4c2ccccc2)C3c2ccc(Cl)nc2)c1 (some centres undefined) | 3.9%
26 | CC(C)(C)c1ccc(-c2nc(-c3ccncc3)no2)cc1 | 3.4%
27 | CC(=O)NO | 5.1%
28 | CC(=O)Nc1ccc(OC(=O)c2ccccc2O)cc1 | -2.1%
29 | COc1cc2c(cc1OC)C1(O)C(=O)c3ccc(O)c(C(=O)O)c3OC1CO2 (centres undefined) | -2.9%
30 | COc1ccc(-c2cc(=O)c3ccccc3o2)cc1 | -5.2%
31 | CC(=O)Oc1ccc2c(c1OC(C)=O)OCC1(O)Cc3c(cc(OC(C)=O)c(OC(C)=O)c3OC(C)=O)C21 (centres undefined) | -2.1%
32 | CCCCCCCC/C=C/CCCCCCCCOP(=O)([O-])OCC[N+](C)(C)C | -1.4%
33 | CNS(=O)(=O)Cc1ccc2[nH]cc(CCN(C)C)c2c1 | 0.2%
34 | CCC1=C2CC[C@H]3C(=O)N(C)C(=O)[C@H]3[C@H]2[C@@]2(C)C(=NCc3ccccc3)OC(=O)N2C1=O | 2.8%
35 | COC(=O)c1ccc(C23CC4(C2)[C@H](CN(CC2CCCCC2)[C@@H]4c2ccccc2)C3c2ccc(Cl)nc2)cc1 (some centres undefined) | 3.7%
36 | CCOC(=O)N1CCC(NC(=O)c2cnc3n(c2=O)CCS3)CC1 | -1.6%
37 | COc1cc(C)c(C(C)C)cc1S(=O)(=O)n1cnc(C)c1 | -1.3%
38 | COC(=O)Oc1ccccc1C(=O)O | 0.3%
39 | OCc1ccccc1O[C@@H]1O[C@H](CO)[C@@H](O)[C@H](O)[C@H]1O | -0.2%
40 | O=C1CC(Cc2ccccc2)C(=O)N1CCc1ccc2c(c1)OCO2 (centres undefined) | 1.5%
41 | CCN(CC)Cc1ccc(Nc2ccnc3cc(Cl)ccc23)cc1O | -1.2%
42 | COc1ccc(C2CC(=O)c3c(O)cc(O[C@H]4OC(COC5OC(C)C(O)C(O)[C@@H]5O)C(O)C(O)C4O)cc3O2)cc1O (some centres undefined) | -1.6%
43 | CCCNc1nc2c(c(=O)[nH]c(=O)n2C)n1CCc1ccccc1 | -1.3%
44 | COC(=O)c1ccc(CSc2ncnc3ccccc23)o1 | 0.2%
45 | COC(=O)c1c(C)cc(O)cc1O | -1.2%
46 | O=C(OCC1OC(OC(=O)c2cc(O)c(O)c(OC(=O)c3cc(O)c(O)c(O)c3)c2)[C@@H](OC(=O)c2cc(O)c(O)c(OC(=O)c3cc(O)c(O)c(O)c3)c2)C(OC(=O)c2cc(O)c(O)c(OC(=O)c3cc(O)c(O)c(O)c3)c2)C1OC(=O)c1cc(O)c(O)c(OC(=O)c2cc(O)c(O)c(O)c2)c1)c1cc(O)c(O)c(OC(=O)c2cc(O)c(O)c(O)c2)c1 (some centres undefined) | -9.8%
47 | O=C(OCc1ccccc1)c1ccccc1 | -1.0%
48 | Cc1ccc(C(=O)N2CCN(c3cccc(Cl)c3)CC2)cc1C | 0.6%
49 | COc1cccc(/C=N/n2c(SC)nnc2-c2ccccc2)c1OC | 3.0%
50 | CCC1=C2CC[C@H]3C(=O)NC(=O)[C@H]3[C@H]2[C@@]2(Cc3ccccc3)C(=NCc3ccccc3)OC(=O)N2C1=O | 2.3%

Additional structures follow.
no. | Compound | AID923
51 | CC(C)CC(=O)Nc1ccc(F)c(Cl)c1 | -1.3%
52 | C=C1CC[C@@H]2O[C@@]2(C)CC[C@H]2[C@H]1CC2(C)C | 0.0%
53 | FC(F)(F)c1ccc(C2[C@H]3CN(CC4CCCCC4)[C@H](c4ccccc4)C34CC2(c2cccnc2)C4)cc1 (some centres undefined) | 0.7%
54 | CO/N=C1\CN(c2nc3c(cc2F)c(=O)c(C(=O)O)cn3C2CC2)CC1CN (centres undefined) | -0.4%
55 | CCC1CCCCN1Cc1nc2c(c(=O)n(C)c(=O)n2C)n1CCC(C)C (centres undefined) | 5.7%
56 | O=C(O)c1nc2cc(Cl)c(Cl)cc2[nH]c1=O | 1.3%
57 | Oc1ccccc1 | -3.1%
58 | C[C@H](CCC(=O)O)[C@H]1CC[C@H]2[C@H]3C(C[C@H](O)[C@]12C)[C@@]1(C)CC[C@@H](O)C[C@H]1C[C@H]3O (some centres undefined) | -0.6%
59 | COC(=O)c1cccc(C23CC4(C2)[C@H](CN(Cc2ccc(-c5ccccc5)cc2)[C@@H]4c2ccccc2)C3c2ccccc2)c1 (some centres undefined) | 0.2%
60 | COc1ccc(C2OC(=O)CC2C(=O)N2CCN(c3cc(Cl)ccc3C)CC2)cc1OC (centres undefined) | 2.9%
61 | COC1OC2COC(c3ccccc3)OC2C(O)C1O (centres undefined) | -1.2%
62 | COC(=O)c1ccc(CN2[C@H](C(=O)OC)C[C@@]3(O)[C@H](O)[C@H](O)[C@H](O)C[C@@H]23)cc1 | -0.6%
63 | COc1ccc(OC)c(NC(=O)C2COc3ccccc3O2)c1 (centres undefined) | -2.2%
64 | O=C(NCc1ccc(F)cc1)c1cnc2sccn2c1=O | 0.3%
65 | O=c1c(-c2ccc(O)cc2)coc2c(C3OC(CO)C(O)C(O)C3O)c(O)ccc12 (centres undefined) | 2.5%
66 | COc1ccc(S(=O)(=O)Cc2ccc(C(=O)N3CCN(Cc4ccccc4)CC3)o2)cc1 | -0.5%
67 | CC1(C)C(c2ccccc2)=[N+]([O-])CN1O | 1.1%
68 | Cn1c(C(=O)NCc2cccs2)cc2oc3ccccc3c21 | 0.1%
69 | CC(C)C1CCC(C(=O)NC(Cc2ccccc2)C(=O)O)CC1 (centres undefined) | 3.1%
70 | O=C(Nc1ccc(Br)cc1F)C1CCN(c2nnc(-n3cccc3)s2)CC1 | -2.3%
71 | CNC(=O)CN1C(=O)CSc2nc(C)cc(C)c21 | -0.9%
72 | C=C1CCC2C(CC2(C)C)C(=C)CC/C1=N/O (centres undefined) | -0.7%
73 | CCOc1cccc(-c2cc(C(=O)N/N=C/c3cccc(OC)c3O)[nH]n2)c1 | 1.4%
74 | CCCCCCCCCCCCCCC(C(=O)OC)C(O)(CC(=O)OC)C(=O)OC (centres undefined) | -1.6%
75 | CCCCC(CC)CNC(=O)c1[nH]c(C)c(C(C)=O)c1C (centres undefined) | -0.1%
76 | CCC1=C(OC(=O)N(CC)CC)N2C(=O)OC(=NCCOC)[C@]2(Cc2ccccc2)[C@H]2C1=CC[C@H]1C(=O)N(CC(=O)OC)C(=O)[C@H]12 | 2.1%
77 | CC(=O)OCC(=O)[C@@]12OC(C)(C)OC1CC1C3CC(F)C4=CC(=O)C=C[C@@]4(C)[C@@]3(F)C(O)C[C@]12C (some centres undefined) | -4.8%
78 | CC(=O)NCc1c(I)c(NC(C)=O)c(I)c(C(=O)O)c1I | -2.3%
79 | COc1cc(O)c2c(c1)C(=O)c1cc(C)cc(O)c1C2=O | -1.4%
80 | O=C1OC(C(O)CO)C(O)=C1O (centres undefined) | 1.3%
81 | COC(=O)C1(C(F)(F)F)N=C2Sc3ccccc3N2C(N2CCOCC2)=N1 (centres undefined) | -6.3%
82 | Cc1ccc(CCC(=O)Nc2nccs2)o1 | 1.2%
83 | CC(C)=CCC[C@](C)(O)C1CC=C(C)CC1 (some centres undefined) | -2.4%
84 | COc1ccc(-c2coc3c(OC)c(OC)cc(OC)c3c2=O)cc1 | -3.5%
85 | Cc1ccccc1OCC(=O)NCCC(=O)O | 0.5%
86 | CN1CCCC1CCO[C@@](C)(c1ccccc1)c1ccc(Cl)cc1 (some centres undefined) | -1.6%
87 | COC(=O)CC[C@@H](C)[C@H]1CC[C@H]2[C@@H]3CC[C@@H]4C[C@H](O)CC[C@]4(C)[C@H]3C[C@H](O)[C@]12C | 0.1%
88 | COc1ccc(CCC(=O)c2c(O)cc(OC3OC(CO)C(O)C(O)C3O[C@@H]3OC(C)C(O)C(O)C3O)cc2O)cc1O (some centres undefined) | 1.2%
89 | O=C(Nc1ccccn1)c1cccc(S(=O)(=O)N2CCCCC2)c1 | -3.6%
90 | O=C(/C=C/c1ccc(OCc2ccccc2)cc1)c1cccs1 | 5.2%
91 | CC1(C)OC2CC3C4CCC5=CC(=O)CCC5(C)C4(F)C(O)CC3(C)[C@]2(C(=O)CCl)O1 (some centres undefined) | 0.5%
92 | O=C1NC(=O)c2cc(Nc3ccccc3)c(Nc3ccccc3)cc21 | -1.6%
93 | COc1cc(O)c(C)c(O)c1 | -2.6%
94 | COC(=O)CC1C2(C)CC34OC5(C)O[C@@]6(C7/C(=C(/OC)C(C)C)C(=O)OC(c8ccoc8)[C@@]7(C)C(OC(=O)C(C)C)C(OC)[C@]6(O5)[C@@]13C)C(OC)[C@]4(OC)C2OC(C)=O (some centres undefined) | 2.4%
95 | Cc1cc(=O)oc2cc(O[C@@H]3O[C@H](C(=O)O)[C@@H](O)[C@H](O)[C@H]3O)ccc12 | -0.1%
96 | COc1cc(/C=C/C(=O)O)ccc1O | -0.4%
97 | O=C(c1cc2ncc(Br)cn2n1)N1CCOCC1 | 0.1%
98 | CC(C)CCCC(C)C1CCC2C3C(=O)C=C4CC(O)CC[C@@]4(C)C3CC[C@@]12C (some centres undefined) | -2.5%
99 | C=C1CCC(O)C/C1=C/C=C1\CCC[C@@]2(C)C(C(C)/C=C/C(C)C(C)C)CC[C@@H]12 (some centres undefined) | 2.7%
100 | CC(C)CC1C(=O)N2CCCC2C2(O)O[C@@](NC(=O)C3C=C4c5cccc6[nH]c(Br)c(c56)CC4N(C)C3)(C(C)C)C(=O)N12 (some centres undefined) | 5.8%

Additional entries.
no. | Compound | AID923
101 | CC(=O)/C=C\C1[C@]2(C)CCCC(C)(C)C2CC[C@@]1(C)O (some centres undefined) | -1.9%
102 | CSc1ncnc2c1ncn2C1OC(CO)C(O)C1O (centres undefined) | -0.5%
103 | Cn1c(=O)[nH]c(=O)c2[nH]cnc21 | -2.0%
104 | CC(=O)c1cc(F)c(N2CCCC2)cc1C | 5.5%
105 | CSc1ccccc1N=Cc1nc(-c2ccccc2)oc1O | 16.1%
